Compound activity deposited in PubChem BioAssay by Vanderbilt University.
GIRK2 act: GIRK2 channel activation; HEK293-GIRK2 thallium flux, Thallos fluorescence; calls only for hits at 25 µM; actives 0.05% (n = 63,000);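 active = among the strongest 0.2% of first-round signals and kept after retests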;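 note: first round at about 10 µM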
Target sequence (P48051 whole entry, looked up): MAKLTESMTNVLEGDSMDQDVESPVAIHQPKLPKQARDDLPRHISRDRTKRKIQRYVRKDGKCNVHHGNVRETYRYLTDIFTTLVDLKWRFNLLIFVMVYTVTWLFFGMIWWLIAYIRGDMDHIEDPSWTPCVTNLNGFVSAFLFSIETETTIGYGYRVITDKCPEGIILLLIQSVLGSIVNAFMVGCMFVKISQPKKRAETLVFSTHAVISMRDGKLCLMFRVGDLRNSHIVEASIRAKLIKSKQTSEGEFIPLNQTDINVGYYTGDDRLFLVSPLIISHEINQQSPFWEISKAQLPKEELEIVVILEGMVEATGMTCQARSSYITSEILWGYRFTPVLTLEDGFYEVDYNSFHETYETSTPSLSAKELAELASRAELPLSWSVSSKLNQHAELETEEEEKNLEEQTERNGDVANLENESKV
Calls only; i = inactive. These rows are one share of the data. The share of hits here may be higher or lower than overall.

smiles	GIRK2 act
O=C(c1ccc2c(c1)OCO2)N1CCC2(CC1)OCCCO2	i
Cc1nc2cc(NC(=O)c3cc(-c4ccco4)[nH]n3)ccc2s1	i
O=C(O)CC(CC(=O)NCC1CCN(C(=O)Oc2ccccc2)CC1)c1cccs1 (centres undefined)	i
CCS(=O)(=O)N1CCCc2cc(NS(=O)(=O)c3ccc4c(c3)OCCO4)ccc21	i
O=C(Oc1ccc2c(=O)c(-c3ccccc3)coc2c1)c1ccc([N+](=O)[O-])cc1	i
CCN(CC)C(=O)Oc1ccc2c(c1)O/C(=C\c1cccc(OC)c1)C2=O	i
COc1ccc(NC(=O)c2cc(=O)c(OC)c[nH]2)cc1OC	i
FC(F)(F)c1nnc(C2CCN(Cc3ccc(OCc4ccccc4)cc3)CC2)o1	i
CCCCC[C@](C)(O)/C=C/[C@H]1[C@H](O)CC(=O)[C@@H]1CCCCCCC(=O)O	i
COc1ccc2nc(-n3nc(C)cc3NC(=O)c3ccc(C#N)cc3)sc2c1	i
Cc1ccc(-c2noc(Cc3nnc(-c4cc(C)cc(C)c4)o3)n2)cc1	i
O=C(c1ccc(N2C(=O)CCC2=O)cc1)N1CCN(Cc2nc(-c3ccc(F)cc3)cs2)CC1	i
COc1ccc(CC(C)(O)CNS(=O)(=O)c2cccc(C(F)(F)F)c2)cc1 (centres undefined)	i
O=C(/C=C/c1ccccc1Cl)NCCC(O)C1CC1 (centres undefined)	i
CC(C)(C)c1cc(/C=C(\C#N)C(N)=S)cc(C(C)(C)C)c1O	i
COc1cccc2c(SCC(=O)NCc3ccco3)nccc12	i
O=C(Nc1nccs1)C1CCCN(c2ccc(-c3cccs3)nn2)C1 (centres undefined)	i
CCOCCCNC(=O)c1cc2cccc(OC)c2oc1=O	i
COc1ccc(-c2noc(C3CCN(CC(=O)Nc4ccc(C)c(C)c4)CC3)n2)cc1	i
COc1ccc(CNC(=O)Cn2ccn3nc(-c4ccc(Cl)cc4)cc3c2=O)cc1	i
COC(=O)N(Cc1cccs1)Cc1cccn1C	i
COc1ccc(Cl)cc1NC(=O)/C=C/c1ccccc1O	i
Cc1ccc(-c2n[nH]n3c2nc(=O)c2ccc(C(=O)N4CCN(c5ccccc5)CC4)cc23)cc1	i
O=C(Nc1ccc2c(c1)OCCO2)C1CCCN(c2ccc(-c3ccc(Cl)cc3)nn2)C1 (centres undefined)	i
CCOC(=O)CCC(=O)N1CCC(Oc2ccc(C#N)cn2)CC1	i
O=C(NCCC1CCCCN1S(=O)(=O)c1cccs1)C(=O)Nc1ccon1 (centres undefined)	i
COC(=O)C1CCN(C(=O)c2cc3c(=O)n4cc(C)ccc4nc3n2Cc2ccccc2)CC1	i
CCCOc1ccc(S(=O)(=O)NCc2cc(C)oc2C)cc1	i
CCN(CC)CCN1C(=O)c2oc3cc(C)c(C)cc3c(=O)c2C1c1ccccc1 (centres undefined)	i
Cc1nccn1-c1ccc(=O)n(CCNC(=O)Cn2nc(-c3ccc(F)cc3)ccc2=O)n1	i
CNC(=O)c1ccc(N2C(=O)C3SC(N)=C4C(=O)Oc5ccccc5C4C3C2=O)cc1 (centres undefined)	i
COc1cc(OC)cc(C(=O)Nc2ccc(OC)c(N3CCCC3=O)c2)c1	i
O=C(/C=C/c1ccco1)Nc1ccc2c(c1)C(=O)NCC2	i
Cc1ccc2nc3c(cc(C(=O)N4CCN(c5ccc(F)cc5)CC4)n3C)c(=O)n2c1	i
COc1ccc(NC(=O)Cn2nc3c(SCc4ccc(Cl)cc4)nccn3c2=O)cc1OC	i
COC(=O)c1ccc2c(=O)n(-c3ccccc3)c(N3CCN(Cc4ccccc4)CC3)nc2c1	i
COc1cccc(CNC(=O)c2nn(-c3ccc(C)cc3)c(OC)cc2=O)c1	i
O=C(CCn1c(=O)oc2ccc(Cl)cc21)Nc1ccccc1C(F)(F)F	i
CCOc1ccc(NC(=O)Cn2c(=O)n(CCCCC(=O)NCC(C)C)c(=O)c3ccccc32)cc1	i
O=C(Nc1cccs1)N1CCOC(c2cc(Cl)cc(Cl)c2)C1 (centres undefined)	i

Some of the entries so far, with the structure last.
GIRK2 act | SMILES
i | CCS(=O)(=O)N1CCCc2cc(NS(=O)(=O)c3ccc4c(c3)OCCO4)ccc21
i | CC(C)(C)c1cc(/C=C(\C#N)C(N)=S)cc(C(C)(C)C)c1O

Other structures.
smiles	GIRK2 act
Cc1ccc(S(=O)(=O)Nc2ccc3c(c2)CCCN3C(=O)c2ccccc2)cc1	i
C=C(C)Cn1c(=O)c2c(nc3n(Cc4ccco4)c(C)c(C)n23)n(C)c1=O	i
CCN1C(=O)c2cc(NC(=O)/C=C/c3cccs3)ccc2Oc2ccccc21	i
O=C(N1CCN(Cc2nc(C3CC3)cs2)CC1)C1(c2ccc(Cl)cc2)CCCC1	i
Cc1ccc(C)c(N2CCN(c3ccc(S(=O)(=O)C4CCCCC4)nn3)CC2)c1	i
Cn1cccc(C(=O)Nc2ccc3c(c2)CC(=O)N3)c1=O	i
Cc1cccc(CN2CCc3nc(C)n(CC(=O)Nc4ccc5c(c4)OCO5)c(=O)c3C2)c1	i
O=C1CCC(=O)N1CC(=O)N1C2CCC1COC2	i
COc1ccccc1OCC#CCNC(=O)c1sc(C)nc1C	i
O=C(Nc1ccc2ncccc2c1)c1nnn(-c2ccc(Br)cc2)n1	i
O=C(O)CCc1ccc(Br)cc1[N+](=O)[O-]	i
C=CCNC(=O)Nc1nc2c(s1)C(=O)CC(C)(C)C2	i
Cc1nnc(NC(=O)CN(C)C(=O)c2c[nH]c3ccccc23)s1	i
COC(=O)N1CCC(CNC(=O)NCc2cccc3ccccc23)CC1	i
CCCn1c(C(=O)Nc2ccc(C(C)C)cc2)cc2c(=O)n(C)c(=O)n(C)c21	i
O=C(NCC#CCN1CCOCC1)Nc1cccc(C(F)(F)F)c1	i
CCCC(=O)Nc1ccc2c(c1)C(=O)Nc1cc(Cl)ccc1O2	i
COc1ccccc1NC(=O)c1cn(-c2ncccc2-c2nc(-c3ccccc3)no2)cn1	i
O=C(Nc1ccccc1C(F)(F)F)N(CCc1cccs1)C1CC1	i
Cc1cnnn1-c1ccc(C(=O)Nc2ccc(SC#N)cc2)cc1	i
CCOC(=O)Cn1c(C2CC(=O)N(CC)C2)nc2ccccc21 (centres undefined)	i
CC(C)(C)C(=O)NCCC(O)C(C)(C)C (centres undefined)	i
COc1ccccc1N1CCN(CCNC(=O)c2cccc(OC)c2OC)CC1	i
CC1CCCC(C)N1CC(O)COc1ccc(C2CCCCC2)cc1 (centres undefined)	i
O=C(c1cc(-c2ccco2)[nH]n1)N1CCCC(c2nnc(-c3cccs3)o2)C1 (centres undefined)	i
Cc1ccc(-n2ncc3c(=O)n(NC(=O)c4cccc(C(F)(F)F)c4)cnc32)cc1C	i
Cc1csc(SCC2CCN(C(=O)c3cccc(C#N)c3)CC2)n1	i
CCOc1ccc(C(=O)N2CCN(c3oc(/C=C/c4ccc(C)cc4)nc3C#N)CC2)cc1	i
Cc1ncc2c(SCC(=O)NCc3ccccc3Br)ncnc2n1	i
CCN(CC)S(=O)(=O)c1ccc(-c2nc(C#N)c(NCc3ccco3)o2)cc1	i
CCOC(=O)CCC(=O)N(Cc1ccsc1)CC(F)(F)F	i
Cc1nn(C(C)(C)C)c(OC(=O)CCC2CCCC2)c1Sc1ccccc1[N+](=O)[O-]	i
Cc1ccc(C)c(N2CCN(C(=O)C3CCN(c4ncnc5c4sc4ncccc45)CC3)CC2)c1	i
COC(=O)c1ccc(C(=O)NCC2CCC(c3nc4ccccc4n3C)CC2)cc1 (centres undefined)	i
COc1cc(C)c(C)cc1S(=O)(=O)NCc1ccc(C(O)c2cccs2)s1 (centres undefined)	i
O=C(c1ccc(C(F)(F)F)cc1)N1CCC(CSc2ccccn2)CC1	i
Cc1cc(NC(=O)CN(C)c2nc3c(Cl)cccc3s2)no1	i
COCCn1c(=O)c2c(nc(-n3nc(C)c(C)c3C)n2C(C)C)n(C)c1=O	i
COc1ccccc1N1CCN(C(=O)c2coc(NC(=O)C3CC3)n2)CC1	i
NNCCc1ccccc1	i

Some of the entries so far, with each value named:
COc1cc(C)c(C)cc1S(=O)(=O)NCc1ccc(C(O)c2cccs2)s1 (centres undefined)
  GIRK2 act: i
CC1CCCC(C)N1CC(O)COc1ccc(C2CCCCC2)cc1 (centres undefined)
  GIRK2 act: i

(cont.)
| SMILES | GIRK2 act |
| --- | --- |
| O=C(Cn1ccn2nc(-c3ccccc3)cc2c1=O)Nc1cc(C(F)(F)F)ccc1Cl | i |
| COC(=O)c1ccc(Cn2nc3c(-c4nc(-c5ccccc5)no4)cccn3c2=O)o1 | i |
| O=C(CN1CCN(c2ccc(F)cc2)C1=O)Nc1nc(-c2ccco2)cs1 | i |
| CCCCOC(=O)c1ccc(NC(=O)c2cc3n(n2)CCCO3)cc1 | i |
| Cc1ccccc1C(=O)N1CCN(c2ncnc3c2nnn3-c2ccccc2)CC1 | i |
| COC(=O)c1ccc2c(=O)n(CCC(=O)NCc3ccccc3OC)c(=S)[nH]c2c1 | i |
| CC(=O)c1ccc(Nc2nc3c(S(=O)(=O)c4ccccc4)nnn3c3ccc(Cl)cc23)cc1 | i |
| O=C(c1cc(C2CC2)on1)N1CCOC2(CCOCC2)C1 | i |
| Cc1cc(C)c2nc(-n3nc(C)cc3NC(=O)c3ccc4c(c3)OCO4)sc2c1 | i |
| CCOC(=O)c1ccc(Nc2nnc3nc4c(c[nH]n4-c4ccccc4)c(=O)n23)cc1 | i |
| O=C(NC1CCN(C(=O)c2cn(-c3ccc(Cl)cc3)nn2)CC1)c1ccco1 | i |
| O=S(=O)(c1cccnc1)N1CCCC(COCc2ccccc2)C1 (centres undefined) | i |
| Cc1c(C)n2c3c(=O)n(Cc4ccccc4F)c(=O)n(C)c3nc2n1Cc1ccco1 | i |
| O=C(CCCn1nnc2ccccc2c1=O)Nc1ccc2c(c1)OCCO2 | i |
| O=C(NCc1ccc(OC(F)(F)F)cc1)c1coc(NC(=O)C2CC2)n1 | i |
| O=C(c1cccc2ccccc12)N1CCN(CC(O)c2ccco2)CC1 (centres undefined) | i |
| Cc1ccc(-c2cc(=O)n(CC(=O)Nc3ccc(Oc4ccccc4)cc3)[nH]2)cc1 | i |
| CCOc1ccc2c(=O)c(-c3ccccc3OC)c(C(F)(F)F)oc2c1 | i |
| COCCc1nnc(NC(=O)c2ccccc2SC)o1 | i |
| Cc1ccccc1-n1nnc(C(=O)Nc2cccc(C(C)O)c2)c1C (centres undefined) | i |
| Cc1cccn2c(=O)c3cc(S(=O)(=O)c4ccccc4)c(=N)n(CCO)c3nc12 | i |
| N#Cc1nc(/C=C/c2cccs2)oc1N1CCN(C(=O)c2cccc(Cl)c2)CC1 | i |
| COc1ccc2[nH]c3c(SCC(=O)Nc4ccccc4C(F)(F)F)ncnc3c2c1 | i |
| O=C(/C=C/c1ccccc1)Nc1cnc(N2CCOCC2)nc1 | i |
| Cc1cc(C)cc(NC(=O)CSc2nc3ncccc3c(=O)n2CC2CCCO2)c1 (centres undefined) | i |
| Cc1ccc(S(=O)(=O)NCCNC(=O)c2ccc(NC(=O)C3CCCC3)cc2)c(C)c1 | i |
| Cc1nc(C)c(-c2nnc(NC(=O)C3c4ccccc4Oc4ccccc43)o2)s1 | i |
| COc1cccc(COc2coc(C(=O)Nc3cc(OC)ccc3OC)cc2=O)c1 | i |
| Cc1c(C(N)=O)nnn1-c1nccs1 | i |
| COc1ccc(S(=O)(=O)c2c(C)cc(C)n(CC(=O)NCc3ccccc3)c2=O)cc1OC | i |
| COc1cc(NC(=O)CSc2nccn(-c3ccc(C)cc3)c2=O)cc(OC)c1 | i |
| Cc1nn(-c2ccccc2)c(C)c1N1CCN(C(=O)Cn2c(=O)oc3ccccc32)CC1 | i |
| O=C1CC(c2noc(-c3ccccc3)n2)CN1CCc1ccccc1 (centres undefined) | i |
| COc1ccc(C(=O)NC2CCCC(OC(=O)Nc3ccccc3)C2)cc1 (centres undefined) | i |
| CCCC(CCC)C(=O)NCCCS(=O)(=O)N1CCN(c2ccccn2)CC1 | i |
| CCOCCn1c(-n2nc(C)cc2C)nc2c1c(=O)n(CCc1ccccc1)c(=O)n2C | i |
| Cc1noc(CNC(=O)NCc2cccs2)n1 | i |
| O=S(=O)(N1CCCCCC1)N1CCN(c2ccc(Cl)c(Cl)c2)CC1 | i |
| COCC(=O)Nc1c(C)nc2sc(C)c(C)n2c1=O | i |
| CCC(=O)Oc1ccc2c(c1)O/C(=C\c1cccc(OC)c1OC)C2=O | i |

Structures from the list above that contain bromine (three):
| SMILES | GIRK2 act |
| --- | --- |
| O=C(Nc1ccc2ncccc2c1)c1nnn(-c2ccc(Br)cc2)n1 | i |
| O=C(O)CCc1ccc(Br)cc1[N+](=O)[O-] | i |
| Cc1ncc2c(SCC(=O)NCc3ccccc3Br)ncnc2n1 | i |

Fetched one by one from the entries so far, three records:
| SMILES | GIRK2 act |
| --- | --- |
| COc1ccc(C(=O)NC2CCCC(OC(=O)Nc3ccccc3)C2)cc1 (centres undefined) | i |
| O=S(=O)(N1CCCCCC1)N1CCN(c2ccc(Cl)c(Cl)c2)CC1 | i |
| COc1ccc(S(=O)(=O)c2c(C)cc(C)n(CC(=O)NCc3ccccc3)c2=O)cc1OC | i |

Other compounds follow:
| SMILES | GIRK2 act |
| --- | --- |
| NC(=O)c1nnn(-c2ccc(NS(=O)(=O)c3ccc(Br)s3)cc2)n1 | i |
| COc1ccc(-c2ccc(=O)n(C(C)C(=O)N3CCN(c4ncccn4)CC3)n2)cc1 (centres undefined) | i |
| CC1(C)CC[C@]2(C(=O)O[C@@H]3O[C@H](CO)[C@@H](O)[C@H](O)[C@H]3O)CC[C@]3(C)C(=CCC4[C@@]5(C)C[C@H](O)[C@H](O[C@@H]6O[C@H](C(=O)O)[C@@H](O)[C@H](O)[C@H]6O)[C@](C)(C=O)C5CC[C@]43C)[C@@H]2C1 (some centres undefined) | i |
| O=C(Nc1onc2c1CSC2)c1ccc2c(c1)OCO2 | i |
| CCC(CC)C(=O)Nc1nonc1-c1ccc(OC)c(OC)c1 | i |
| COC(=O)C(C)Oc1ccc2c(c1C)O/C(=C\c1ccc(OC)cc1OC)C2=O (centres undefined) | i |
| CC(C)(C)NC(=O)N1CCC(S(=O)(=O)c2ccc(F)cc2)CC1 | i |
| O=S(=O)(c1cccc(Cl)c1)N1CN(CC2CCCO2)c2nc3ccccc3nc21 (centres undefined) | i |
